# Source: PubChem BioAssay (National Center for Advancing Translational Sciences (NCATS))
# VDR inh: Inhibitors of the vitamin D receptor (VDR): qHTS | Vitamin D3 receptor (Homo sapiens), P11473 | VDR-SRC2-3 peptide fluorescence polarization, 2 h | hit rate 0.93% among 400,000 | Potency, µM, inactives show max response, negative = inhibition, actives largely listed as inhibitors; active = well fitted inhibition curve with a large enough effect; inconclusive = small, poorly fitted or top-dose-only effect, or another doubt; inactive = no such curve, though single readings can be large or run the other way; also: series mostly up to about 120 µM
# Target sequence (P11473 whole entry, looked up): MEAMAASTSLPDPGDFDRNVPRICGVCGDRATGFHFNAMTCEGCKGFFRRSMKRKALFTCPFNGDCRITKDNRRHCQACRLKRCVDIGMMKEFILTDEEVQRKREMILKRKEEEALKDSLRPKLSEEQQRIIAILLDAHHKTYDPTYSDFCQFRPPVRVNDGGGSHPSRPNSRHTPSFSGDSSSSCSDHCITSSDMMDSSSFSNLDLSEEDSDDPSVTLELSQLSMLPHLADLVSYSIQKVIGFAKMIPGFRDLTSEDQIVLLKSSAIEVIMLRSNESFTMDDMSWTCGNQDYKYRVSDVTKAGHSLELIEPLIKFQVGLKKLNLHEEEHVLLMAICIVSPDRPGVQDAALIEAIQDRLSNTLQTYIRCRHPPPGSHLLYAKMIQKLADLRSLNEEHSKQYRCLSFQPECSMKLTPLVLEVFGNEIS
#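 Fluorescence polarization assay measuring small-molecule disruption of VDR binding to the coregulator peptide SRC2-3. Compounds were pin-transferred (23 nl) into the reagent mix and incubated 2 h at room temperature before reading.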
# Active calls of the source: *; u = inconclusive; & = joins results of further samples. % is scaled to controls: 0 for no effect and ±100 for the full control effect; potency is read from the fitted curve at half-maximal effect. A portion of the library; the hit share may differ from the screen's.
structure,VDR inh
Cc1nn(CC(=O)NCC2CCCO2)c(=O)c2ccccc12 (configuration not stated),14%
Cc1ccc(C(=O)Nc2cc(S(=O)(=O)N3CCOCC3)ccc2N2CCCC2)cc1,0%
CCCCc1cc(=O)oc2cc(OCC(=O)NCc3ccccn3)c(Cl)cc12,-8%
CCOC(=O)c1ccc(NC(=O)c2c(NC(=O)CCC(=O)O)sc3c2CCCCC3)cc1,u
CN(C)/C=N/c1cc(=O)n(C)c(=O)n1CC1CC1,1%
COc1ccc(CN(CCCN)c2ccc(Br)cn2)cc1,-5%
Cc1noc(C)c1CSCC(=O)N(CCC(C)C)c1c(N)n(Cc2ccccc2)c(=O)[nH]c1=O,-4%
COc1ccccc1C1CC(c2cccs2)=NN1C(=O)CCC(=O)O (configuration not stated),-8%
Cc1cc(C(=O)N/N=C/C=C/c2ccc(Br)cc2)n[nH]1,19%
CCOC(=O)c1c(C)[nH]c(C)c1S(=O)(=O)N1CCC(C(=O)Nc2ccccc2CC)CC1,2%
O=C(C1CCN(S(=O)(=O)Cc2ccccc2)CC1)N1CCN(c2ncccn2)CC1,-7%
COc1cccc(C2=Nc3cccc4cccc(c34)N2)c1,-21%
O=C(Nc1ccccc1)N(CCN1CCOCC1)Cc1cccc(Cl)c1,4%
CCN(CC)S(=O)(=O)c1ccc(N/N=C/c2ccc(O)cc2O)nc1,-20%
Cn1c(Cn2c(=O)sc3ccccc32)nnc1SCC(=O)N1CCc2ccccc21,-11%
CC(C)(C)NC(=O)C1CCN(C(=O)c2ccco2)CC1,19%
CC(=O)c1ccc(N2CCN(C(=O)c3cc(-c4cccnc4)nc4ccc(Br)cc34)CC2)cc1,-3%
O=C(Nc1ccccc1F)c1cnc(N2CCCCC2)c2ccccc12,u
CCCCCc1ccc(-c2cn(Cc3ccc(C)cc3)nn2)cc1,-13%
Fc1ccc(CN2CCN(C(c3ccccc3)c3ccccc3)CC2)cc1,-3%
Cc1cccc(C(=O)Nc2cc(NC(=O)c3cccs3)ccc2C)c1,-21%
O=C(O)CSCC(=O)NCc1cccc(C(F)(F)F)c1,13%
O=Cc1ccc(OCc2ccc3c(c2)OCO3)cc1,-15%
COCCN(Cc1cc2cc(C)c(C)cc2nc1Cl)C(=O)Nc1ccccc1,13%
O=C(O)CCC1(C(=O)O)OCCc2ccccc21 (configuration not stated),-1%
COc1ccc(N2CCN(C(=O)CN3C(=O)NC(C)(c4ccc5ccccc5c4)C3=O)CC2)cc1 (configuration not stated),4%
COc1ccc(/C=C2/C(=O)OCc3cc(OC)c(OC)cc32)cc1,0%
Cc1ccc2ncc([N+](=O)[O-])n2c1,-2%
Cc1ccc(F)cc1NC(=O)Nc1cc(C(C)(C)C)nn1C,-11%
CC(C)c1nn2c(=O)cc(COC(=O)c3ccccc3Cl)nc2s1,9%

# Molecules listed so far that have a thiophene ring, fused or not (three):
structure,VDR inh
CCOC(=O)c1ccc(NC(=O)c2c(NC(=O)CCC(=O)O)sc3c2CCCCC3)cc1,u
COc1ccccc1C1CC(c2cccs2)=NN1C(=O)CCC(=O)O (configuration not stated),-8%
Cc1cccc(C(=O)Nc2cc(NC(=O)c3cccs3)ccc2C)c1,-21%

# Some of the entries so far, as labelled records:
Molecule: COc1cccc(C2=Nc3cccc4cccc(c34)N2)c1
  VDR inh = -21%

Molecule: O=C(Nc1ccccc1)N(CCN1CCOCC1)Cc1cccc(Cl)c1
  VDR inh = 4%

Molecule: CCN(CC)S(=O)(=O)c1ccc(N/N=C/c2ccc(O)cc2O)nc1
  VDR inh = -20%

Molecule: Cn1c(Cn2c(=O)sc3ccccc32)nnc1SCC(=O)N1CCc2ccccc21
  VDR inh = -11%

# Carrying on.
structure,VDR inh
COc1ccc(-c2cc(C(=O)Nc3ccccc3SC)no2)cc1OC,-4%
Cc1ccc(C)c(OC(=O)c2cccc(S(=O)(=O)N3CCN(C)CC3)c2)c1,-10%
COCCCn1c(SC(C)C(=O)NC2CC2)nc2ccccc2c1=O (configuration not stated),25%
Cc1nc(-c2ccc(F)cc2)sc1CCNC(=O)c1ccco1,4%
O=C(Nc1ccc2c(c1)OCO2)N1CCCC1,0%
O=C1c2ccccc2C(Nc2ccc(S(=O)(=O)N3CCCCC3)cc2)N1c1ccccn1 (configuration not stated),-20%
COc1cccc(CNC(=O)CCCn2c(=O)c3cccn3c3ccc(F)cc32)c1OC,-2%
C#CCOc1ccc(C2C3=C(CCCC3=O)N(CC(=O)O)C3=C2C(=O)CCC3)cc1Br,-14%
COc1ccc(S(=O)(=O)N2CCCCCC2)cc1C(=O)N(C)Cc1ccco1,4%
O=C(O)/C=C\C(=O)Nc1ccccc1C(=O)NC1CCCCC1,1%
CCCSc1nc2[nH]ncc2c(=O)[nH]1,-12%
CC1(C)CC[C@]2(C(=O)O)C(O)C[C@@]3(C)C(=CCC4[C@@]5(C)CCC(O)C(C)(C)C5CC[C@@]43C)C2C1 (some centres not stated),-1%
COC(=O)C(Cc1ccccc1)NC(=O)CCCC(=O)NCc1cccc(OC)c1 (configuration not stated),-3%
CCN(CC)S(=O)(=O)c1ccc(NC2CCCc3ccccc32)nc1 (configuration not stated),7%
COc1ccc(C(=O)Nc2ccc(NC(=O)c3ccccn3)cn2)cc1,-20%
COc1c(C)cc(S(=O)(=O)Nc2cccc(-c3ccc(N4CCOCC4)nn3)c2)c(C)c1C,3%
CC1(c2ccccc2Cl)NC(=O)N(CC(=O)Nc2ccc(N3CCCCC3)cc2)C1=O (configuration not stated),-8%
COC(=O)c1sccc1NC(=O)Cn1cnc2c1c(=O)n(C)c(=O)n2C,-1%
Cc1nnc(-c2ccc(Oc3ccc(Cl)cc3)c([N+](=O)[O-])c2)o1,u
CCOc1ccccc1NC(=O)CCn1c(-c2ccc(OC)cc2)cc(C(C)=O)c1C,8%
COc1ccc(OCCN2CCN(S(=O)(=O)c3ccccc3C#N)CC2)cc1,11%
Cc1ccccc1OCC(O)CN1CCC(C)CC1 (configuration not stated),-4%
O=C(CNC1CCCCCC1)Nc1ccc(S(=O)(=O)NC2CC2)cc1,-3%
Cc1ccc(NC(=O)/C=C/c2ccco2)cc1F,-7%
Oc1ccc(C[C@H]2CNC(=S)N2CC2CCCN2C[C@H](Cc2ccccc2)N2C[C@H](Cc3ccc(O)cc3)N(CCc3ccccc3)C2=S)cc1 (some centres not stated),5%
CC(C)(C)OC(=O)n1cccc1/C=C1\c2ccccc2C(=O)N1c1ccccc1,-11%
CN(C(=O)Cn1cnc2sccc2c1=O)C1CCCCC1,-21%
CC(C)c1ccc(CNc2ccc([N+](=O)[O-])cn2)cc1,11%
Cc1ccccc1OCc1nc(-c2ccc(NC(=O)c3ccco3)cc2)no1,12%
Nc1ccc(C(=O)Nc2nc3ccccc3s2)cc1,4%

# 3 neighbouring records from above, for reference:
structure,VDR inh
CCN(CC)S(=O)(=O)c1ccc(NC2CCCc3ccccc32)nc1 (configuration not stated),7%
COc1ccc(C(=O)Nc2ccc(NC(=O)c3ccccn3)cn2)cc1,-20%
COc1c(C)cc(S(=O)(=O)Nc2cccc(-c3ccc(N4CCOCC4)nn3)c2)c(C)c1C,3%

# Later entries:
structure,VDR inh
c1cc(-c2cc3cc4c(cc3cn2)OCO4)cs1,-15%
Cc1cc(C)c[n+](-c2[nH]c(=O)sc2/C=N/NC([S-])=Nc2ccccc2)c1,u
Cc1cccc(N(CC(=O)NCCC2=CCCCC2)S(C)(=O)=O)c1C,-15%
Cc1ccc(NC(=O)Cn2cccc2C2=NC(c3ccccc3)CO2)c(C)c1 (configuration not stated),7%
CCCCCc1ccc(-c2ccc(=O)[nH]n2)cc1,-3%
N#CCc1ccc(NC(=O)Nc2cccc3ccccc23)cc1,-12%
O=C(COC(=O)c1ccccc1OCc1ccc(Cl)cc1)NC1CC1,18%
C#CCOCCOCCOCCNc1nc(N2CCN(C(=O)[C@H](C)n3cc(CCC(=O)O)nn3)CC2)nc(N2CCN(C(=O)[C@H](Cc3ccc(O)cc3)n3cc(CCO)nn3)CC2)n1,-5%
O=[N+]([O-])c1c(Nc2ccc(Br)cc2)ccc2nonc12,-20%
[O-][n+]1c2c(c3c4non(O)c4ccc31)CCCC2,-15%
Cc1ccn(CCC(=O)Nc2ccc(-c3ccno3)cc2)n1,-7%
CCC(C)[C@H](NC(=O)Nc1ccc(C(C)=O)cc1)C(=O)OC (some centres not stated),6%
O=C(NCc1ccccc1)c1ccc2c(=O)n3c(nc2c1)CCCCC3,16%
COc1ccc(S(=O)(=O)NCC(c2ccco2)N2CCN(c3ccc(F)cc3)CC2)cc1C (configuration not stated),4%
O=C(CCCCCn1c(=S)[nH]c2cc3c(cc2c1=O)OCO3)N1CCN(Cc2ccccc2)CC1,10%
O=C(Nc1cccc([N+](=O)[O-])c1)Nc1cccc([N+](=O)[O-])c1,2%
CCc1ccc(-n2nc(CO)c(C(=O)NCCCCc3ccccc3)n2)cc1,-13%
O=C(Nc1ccccn1)c1ccc(Cl)c(S(=O)(=O)N2CCCC2)c1,-7%
CCOC(=O)C1=C(CN2CCCCCC2)NC(=O)NC1c1cccc([N+](=O)[O-])c1 (configuration not stated),-16%
CC1CCCN(C(=S)Nc2ccc3nc4n(c(=O)c3c2)CCCCC4)C1 (configuration not stated),3%
CCOc1ccc(C(=O)Nc2nnc(S(=O)(=O)N3CCCCC3)s2)cc1,-7%
COc1ccc(-c2oc3ccccc3c(=O)c2OCC(=O)O)cc1,-22%
Cc1ccc(S(=O)(=O)N(C)C)cc1NC(=O)C(C)N(C)CCOc1ccc(Cl)cc1 (configuration not stated),-14%
Cc1csc(/N=C/N(C)C)c1C#N,17%
COc1ccc(C(=O)c2cc3ccc(O)cc3oc2=O)cc1,7%
CCOC(=O)Cn1cc(Cl)c(=O)c(Cl)c1,15%
CC(=O)Nc1nonc1-c1nnc(SCC(=O)Nc2ccc(C)c(Cl)c2)n1-c1ccccc1,19%
CCCC(=O)Nc1ccccc1Sc1ncnc2scc(-c3ccccc3)c12,-23%
CCOc1cc(CNCc2ccccc2)ccc1OCc1ccc(Cl)cc1,10%
Cc1ccc(S(=O)(=O)N2CCN(Cc3ccccc3)CC2)s1,-10%

# 2 records drawn at random from those above:
structure,VDR inh
Cc1ccc(S(=O)(=O)N(C)C)cc1NC(=O)C(C)N(C)CCOc1ccc(Cl)cc1 (configuration not stated),-14%
[O-][n+]1c2c(c3c4non(O)c4ccc31)CCCC2,-15%

# Other structures follow:
structure,VDR inh
COc1ccc(/C=N/N=C/c2ccc(OC)cc2)cc1,-11%
COc1ccc(C(CC(=O)N2CCN(c3ccccc3)CC2)c2c(OC)cc(OC)c3ccc(=O)oc23)cc1 (configuration not stated),5%&6%
CC1CCN(C(=O)C(NS(=O)(=O)c2cccc3nsnc23)c2ccccc2)CC1 (configuration not stated),-17%
Cc1nnc(SCCC(=O)Nc2ccc(Cl)cc2)o1,-3%
O=C(NC1CCCCC1)c1cccc(COCC(F)(F)F)c1,-2%
O=S1(=O)C=C(SCc2cccc(Cl)c2)Nc2ccccc21,-4%
CCC(c1nnc(SCC(=O)Nc2ccc(C(=O)Nc3ccccc3OC)cc2)o1)N(C)C (configuration not stated),7%
CCOc1ncccc1C(=O)OCC(=O)c1ccc(F)cc1,u
CC(C)OCCCNC(=O)c1cc2c(=O)n(C)c3ccccc3c2n1C,-12%
Cc1cnc(C(=O)NCc2ccc(F)cc2)cn1,6%
CN1CCN(S(=O)(=O)c2ccc(NC(=O)Cc3cccs3)cc2)CC1,15%
COc1ccccc1NS(=O)(=O)c1ccc(O)c(C(=O)OCC(=O)N2c3ccccc3CC2C)c1 (configuration not stated),-13%
O=C(COC(=O)c1n[nH]c2ccccc12)NC(=O)NC1CCCC1,13%
COC(=O)c1sccc1NC(=O)Nc1ccccc1OC,-6%
CSc1ccccc1C(=O)Nc1ccc2c(c1)OCO2,21%
Cc1cc(N2CCN(Cc3nc(-c4ccc(Cl)cc4)oc3C)CC2)cc(C)n1,-7%
O=C(NC1CCCCC1)C1CCN(C(=O)c2ccc(Cl)cc2)CC1,-1%
CC(=O)N1[C@H](C)C=C[C@]1(Cc1ccccc1)C(=O)NCc1cc(F)cc(C(F)(F)F)c1,-2%
Cc1cc(C)c2c(-n3cccc3)c(C(=O)NCC(C)c3ccccc3)sc2n1 (configuration not stated),6%
Cc1cccc(NC(=S)N2CCC(c3nc4ccccc4o3)CC2)c1,12%
CCOC(=O)NC(=O)CSc1nnnn1-c1ccc(C)cc1,-22%
CCC(=O)c1ccccc1OCCN1CCN(Cc2ccccc2)CC1,-1%
CCc1cccc(NC(=O)Cn2c(=O)c(C(F)(F)F)nc3ccccc32)c1,0%
COc1ccc(-c2cc(C(=O)N3CCOCC3)no2)cc1OC,8%
Cc1cc(C)nc(NS(=O)(=O)c2ccc(NC(=O)C3CC3)cc2)n1,-13%
O=C(O)c1ccc(/C=C(\c2nc3ccccc3[nH]2)c2nc3ccccc3s2)cc1,u
CCC1(c2ccccc2)NC(=O)N(CC(=O)Nc2cccc(S(=O)(=O)N3CCCC3)c2)C1=O (configuration not stated),-17%
Cc1ccc(C)c(OCc2cc(C(=O)N(C)Cc3nccs3)no2)c1,-12%
